Source: PubChem (PCMD)
Calb biofilm kill = mixtures killing C. albicans biofilm | C. albicans biofilm persisters + clotrimazole, fluorescence viability; primary screen in compound mixtures of four per well | inhibition, % at 7.6 µM | hit rate 0.02% among 120,000;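 active = inhibition above 30.3% in the primary screen of four-compound pools, then above 30% when the compound was retested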;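 note: compounds exposed to preformed 24 h biofilms for 48 h; the number belongs to the whole pool; some results filed as inactive read as strong as hits; inactives centre near 12; 0% = biofilm with clotrimazole alone and 100% = kill control; retested singly at about 60 µM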
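Test system: C. albicans CAF4-2 wild-type biofilms; buffer or medium: RPMI/MOPS medium, pH 7.0; schedule: 24 h biofilm formation, then 48 h compound exposure, 37 °C; detection: Alamar Blue fluorescence; measure: percent inhibition of biofilm viability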
* hit, by the source's call. Only part of the results is shown. The share of hits here may be higher or lower than overall.

structure	Calb biofilm kill
CCOCCCNCc1cc(Br)ccc1OCC	12.1
O=C(Nc1ccccc1)C1(c2ccccc2)CC1(Cl)Cl (stereo unspecified)	10.6
CC[C@H](C)[C@@H](NC(=O)O[C@@H]1C(=O)c2cc(Br)ccc2O[C@H]1c1cccc(OC)c1)C(=O)OC	-1.6
COC(=O)c1sc(NC(=S)NC(=O)c2ccccc2)nc1C	-7.2
CCC(C)NC(=O)c1ccc(-n2c(=S)[nH]c3ccccc3c2=O)cc1 (stereo unspecified)	9.9
COc1cc2nc(/C=C/c3ccc(N(C)C)cc3)sc2cc1SC	9.4
O=C(CNc1cc(S(=O)(=O)N2CCCC2)ccc1OCC(F)(F)F)Nc1cc(Cl)cc(Cl)c1	17.2
COC(=O)C1=C(C(=O)OC)[C@@H]2N(Cc3ccccc3)c3ccccc3[C@@]23C[C@@H](C(=O)OC)N(C(C)=O)C3=N1	0.5
CC(C)C[C@@H]1NC(=O)[C@H](Cc2ccccc2)N(C)C(=O)[C@H](C)NC(=O)c2ccccc2NC(=O)[C@H](Cc2ccc(O)cc2)N(C)C1=O	14.7
Cc1ccc([N+](=O)[O-])cc1N(CC(=O)NCC1CCCO1)S(C)(=O)=O (stereo unspecified)	19.7
CCCCOC(=O)C1=C(N)N2C(=O)C(C)SC2=C(C(=O)OCC)C1c1ccc(O)c(OC)c1 (stereo unspecified)	-5.7
CC1(C)Cc2ccccc2C(NN=C2CCCC2)=N1	5.6
CC1=CC(C)C(C(=O)O)C(C(=O)Nc2cccnc2)C1 (stereo unspecified)	17.6
OCC1(CCc2ccccc2)CCN(Cc2c(F)ccc(F)c2F)CC1	5.5
CC(=O)Nc1ccc(C(=O)N/C(=C\c2ccccc2)C(=O)Nc2cccc(C(=O)O)c2)cc1	19.1
Cc1ccc(NC(=O)c2noc3c2CCC3)cc1C	27.3
O=C1C=C(NNC(=O)c2cccnc2)CC(c2ccco2)C1 (stereo unspecified)	13.9
COc1ccc(Cl)cc1NC(=O)COC(C)=O	4.4
CSc1nc(N)cc(=O)[nH]1	34.9
O=C(NCCc1c[nH]c2ccccc12)/C(=C\c1ccco1)NC(=O)c1ccco1	12.7
Cc1ccc(C(=O)Nc2cc(-c3ccn[nH]3)c(C)n(N)c2=O)cc1	22.2
O=C(Cc1csc(Nc2nc(=S)[nH]c3ccccc23)n1)N1CCN(c2cccc(C(F)(F)F)c2)CC1	8.5
CCC(C)NC(=S)Nc1ccccc1OC (stereo unspecified)	6.5
CCOC(=O)c1c(C)nc(C)c(C(=O)OCC)c1-c1cccnc1	11.9
CCOc1ccccc1NC(=O)c1ccc(OCC)c([N+](=O)[O-])c1	9.0
COc1cc(C)cc(C(=O)O)c1C1=C(O)c2cccc(O)c2C(=O)C1=O	21.3
Cc1ccccc1NCc1nnc2n1CCCCC2	16.0
COc1cccc(/C=C/C(=O)OCC(=O)Nc2cccc(S(=O)(=O)N(C)C)c2)c1	2.8
COc1cc(CNCCc2ccc(S(N)(=O)=O)cc2)ccc1OCC(=O)N1CCCCC1	8.8
N#C/C(=C\c1ccc(C(=O)O)cc1)c1ccccn1	-3.2
CN(C(=O)COC(=O)c1cc(Br)c(Br)s1)C1CCS(=O)(=O)C1 (stereo unspecified)	15.6
CC(=O)N1N=C(c2ccccc2)CC1c1cn(C)c2ccccc12 (stereo unspecified)	18.1
CC1(C)C2CCC1(C)C(OCC[N+](C)(C)CC(=O)OC1CCCCC1)C2 (stereo unspecified)	17.0
C=CCOc1ccc2oc(=O)cc(C)c2c1	16.3
CCOCc1c(C(=O)NC2CCCCCC2)oc2ccccc12	13.0
CN(Cc1ccccn1)Cc1nc(Cc2ccccc2Cl)no1	16.0
CC(C)(C)NC(=O)CN(C(=O)C(=O)Nc1ccc2c(c1)OCCO2)C(C)(C)C	14.3
Cc1cc2c(NS(=O)(=O)c3ccc(F)cc3)cccc2nn1	13.8
O=C(COC(=O)CC(c1ccccc1)c1ccccc1)NCc1ccc(Cl)cc1	8.4
C=CCN(Cc1cn(C)nc1-c1cccc(Cl)c1)C1CCS(=O)(=O)C1 (stereo unspecified)	9.0
C=C(C)CN1CCN(c2ccc(N3C(=O)CCCC3=O)cc2[N+](=O)[O-])CC1	21.5
COCC(C)NC(=O)c1cc(OC)cc(OC)c1 (stereo unspecified)	-0.8
Cc1ccsc1C(=O)OCC(=O)Nc1cccc(S(=O)(=O)NC2=NCCCCC2)c1	23.7
CC(C)c1ccccc1NC(=S)NC1CCN(Cc2ccccc2)CC1	19.7
O=C1NC(=S)N/C1=C/C=C/c1ccccc1	19.2
COc1ccc(CCNC(=O)/C(C#N)=C2\N=C(NC(=O)c3ccco3)c3ccccc32)cc1	11.4
O=C(CSc1nc2ccccc2c(=O)n1-c1ccc(F)cc1)Nc1cc(S(=O)(=O)N2CCOCC2)ccc1Cl	1.8
O=c1c2c(nc3nc(NCc4cccc5ccccc45)[nH]n13)CCC2	16.5
CC(C)Nc1nc(N)c(C(=O)C23CC4CC(CC(C4)C2)C3)s1	11.4
CCOC(=O)C1CCC(CNCc2ccc(Cl)cc2)CC1 (stereo unspecified)	6.2
CC(C)CC(COCc1cccc(C(F)(F)F)c1)N1CCN(C(=O)c2cccc(C(F)(F)F)c2)CCC1=O (stereo unspecified)	14.7
CCOC(=O)Cc1csc(NC(=O)Cn2cnc3c2c(=O)n(C)c(=O)n3C)n1	10.0
Cc1ccc(CC2SC(N)=NC2=O)cc1 (stereo unspecified)	-3.3
O=C(Nc1nc2c(s1)CN(Cc1ccccc1)CC2)C1CCCC1	9.0
CC(=O)Nc1ccc(-c2csc(NNC(=O)c3ccccc3)n2)cc1	0.3
COC(=O)c1ccc(C)c(NC(=O)CCNC(=O)c2ccc([N+](=O)[O-])cc2)c1	16.2
Cc1nc2ccc(NC(=O)c3ccc([N+](=O)[O-])cc3[N+](=O)[O-])cc2s1	13.4
CN1CCN(CCCCOc2ccccc2C=O)CC1	11.1
Cn1c(=O)c2c(ncn2Cc2ccccc2)n(C)c1=O	11.5
O=S(=O)(c1cccc(NC(=S)N2CCN(c3ccccc3F)CC2)c1)C(F)F	5.7

(cont.)
structure	Calb biofilm kill
O=C(CCCOc1ccccc1)OCn1nnc2ccccc2c1=O	9.2
O=C(C1CCC(CNc2nc(=S)[nH]c3ccccc23)CC1)N1CCN(c2ccc(F)cc2)CC1 (stereo unspecified)	26.8
CC1CCN(Cc2c(O)ccc3c(=O)c(-c4nc5ccccc5s4)c(N)oc23)CC1	19.1
CCN(CC)S(=O)(=O)c1ccc(Cl)c(C(=O)Nc2cc(C)nn2-c2ccccc2)c1	8.7
Cc1cccc(NC(=O)c2ccc(C(=O)c3ccccc3)o2)c1	14.6
O=C(COC(=O)/C=C/c1ccc(Cl)cc1Cl)NCCC1=CCCCC1	3.8
COC(=O)CNc1cccc(C(F)(F)F)c1	23.3
CCCn1nc(C(=O)OCC(=O)c2ccc3c(c2)NC(=O)CO3)c2ccccc2c1=O	0.8
Cc1ccc2c(Cl)c(C)c(N3CCCC3)nc2n1	24.2
Cc1cccc(C(=O)Nc2nccs2)c1[N+](=O)[O-]	12.0
NC1=NC(=O)C2(COC(c3ccncc3)OC2)S1 (stereo unspecified)	4.6
N#CCC(=O)Nn1c(=S)[nH]c2ccccc2c1=O	4.3
Cc1nc(-c2cccc(C(F)(F)F)c2)sc1C(=O)O	15.9
COc1ccc(C(=O)OCC(=O)Nc2cc(S(=O)(=O)N3CCOCC3)ccc2N2CCCC2)cc1	11.0
Cn1c(N)c(C(=O)CSc2nc3ccccc3c(=O)n2CCCN2CCOCC2)c(=O)n(C)c1=O	13.8
Cc1nn(-c2ccccn2)c(N)c1N=O	14.6
CCOC(=O)/C(C#N)=C/c1c(N2CCN(Cc3ccc4c(c3)OCO4)CC2)nc2c(C)cccn2c1=O	12.9
COc1ccccc1C(=O)NC(=S)/C=C1/N(C)c2ccccc2C1(C)C	14.0
Cc1ccc(NCc2ccccc2O)c(C)c1	7.7
COc1ccc(CCNC(=O)c2cc(S(=O)(=O)N(C)c3ccccc3)ccc2Cl)cc1	12.1
OCCC1CN(Cc2ccccc2-c2ccco2)CCN1Cc1ccccc1 (stereo unspecified)	-0.9
CN(C)CC(CCCCC(CN(C)C)C(=O)c1ccccc1)C(=O)c1ccccc1 (stereo unspecified)	5.3
C/C(CCc1ccc2c(c1)OCO2)=N\NC(=O)c1ccccc1	9.2
Cc1ccccc1Cn1cnc2c(oc3ccccc32)c1=O	-2.0
Cc1ccc(C(=O)OC/C(O)=C(\C#N)c2nc3ccccc3[nH]2)cc1S(=O)(=O)N1CCOCC1	6.0
CCC1CCCCN1C(=S)NC(=O)c1ccc(F)c(S(=O)(=O)N2CCOCC2)c1 (stereo unspecified)	-1.2
Cc1ccccc1C(=O)NC(CC(C)C)C(=O)OCc1cc(=O)n2cc(Br)ccc2n1 (stereo unspecified)	8.3
COc1ccc(C(=O)C2CCCN(Cc3cnc(N4CCCC4)s3)C2)cc1OC (stereo unspecified)	9.2
CCOc1ccc(NC(=O)COc2ccc(C(=O)NC3CCCc4ccccc43)cc2OC)cc1 (stereo unspecified)	3.0
O=C(COC(=O)c1ccccc1Nc1ccccc1F)c1ccccc1	22.0
CCCCOC(=O)c1ccc(NC(=O)/C=C/c2cccs2)cc1	14.0
CCN(CC(=O)Nc1ccc(C(=O)Nc2ccc(OC)cc2)cc1)Cc1nc2ccccc2c(=O)[nH]1	16.7
O=C(C[n+]1ccccc1)Nc1ccc(Oc2ccccc2)cc1	15.8
O=C(NC(=S)NC1CCCC1)c1ccccc1Br	18.8
O=[N+]([O-])c1ccc(/C=N/n2c(-c3cccnc3)n[nH]c2=S)cc1	8.0
CCCN(CCC)c1nc(Cl)nc(NCCN2CCOCC2)n1	5.6
CCc1n[nH]c(=S)n1/N=C/c1ccc(NC(C)=O)cc1	10.6
Cn1ncc(Br)c1NC(=O)Nc1ccc(OC(F)(F)F)cc1	11.6
CC1CCN(S(=O)(=O)N2CCC(C(=O)NC3CCCC3)CC2)CC1	3.0
Cc1ccccc1CN(C)CCc1ccccn1	11.4
Cc1ccc(S(=O)(=O)NC(=O)Nc2ccc(OC(F)F)cc2)cc1	16.7
COc1ccc(-n2cnc3cc(NS(=O)(=O)c4ccccc4)ccc32)cc1	8.0
CC(C)C(NC(=O)c1ccccc1F)C(=O)NCCc1ccccn1 (stereo unspecified)	9.7
CCOC(=O)c1ccccc1OC(=O)CS(=O)c1ccccc1[N+](=O)[O-] (stereo unspecified)	14.3
Cn1c(=O)c2c(ncn2CC(=O)Nc2cccc(S(=O)(=O)Nc3ccccc3F)c2)n(C)c1=O	12.4
O=C(O)c1ccc(NC(=O)c2cn(-c3ccccc3)nc2-c2ccccc2)cc1	10.5
COC(CNC(=O)c1cc(-c2ccncc2)nc2ccc(S(=O)(=O)N3CCOCC3)cc12)OC	2.7
COc1ccc(NC(=O)Nc2nc3ccccc3s2)cc1	18.0
COc1ccc(/C=N/NC(=O)c2c(C)nnn2-c2nonc2N)cc1OC	24.9
Cc1cc2sc3nc(=O)n(-c4ccccc4)c(=O)n3c2cc1C	30.6
CNC(=O)C(=O)Nc1c(C)cc(C)cc1C	23.4
CC(C)(C)OC(=O)NCCCCCC(=O)N/N=C/c1coc2ccccc2c1=O	21.8
CN(Cc1ccccc1)C(=O)COC(=O)C1CCN(S(=O)(=O)c2cccs2)CC1	6.5
CC(C)CCN(CCC(C)C)C(CO)(CO)CO	15.7
C[C@@H](NC(=O)c1nc[nH]c1C(=O)N[C@@H](Cc1ccccc1)C(=O)OCc1ccccc1)c1ccccc1	18.2
CCOC(=O)c1cc2c(=O)n3cccc(C)c3nc2n(CCOC)c1=NC(C)=O	15.9
COC(=O)c1ccc(NC(=O)C2CCCN2S(=O)(=O)c2ccc(OC)cc2)cc1 (stereo unspecified)	7.6
Cc1ccc(CN2CCN(/N=C/c3ccc(C)s3)CC2)cc1	7.8
Cc1ccccc1-c1ccccc1N	12.9
COc1cc(CNCCc2ccccc2)cc(Cl)c1OCc1ccccc1	20.4

6 structures from above, sorted by molar mass, lowest first:
structure	Calb biofilm kill
CSc1nc(N)cc(=O)[nH]1	34.9
Cc1ccc(CC2SC(N)=NC2=O)cc1 (stereo unspecified)	-3.3
CC(=O)N1N=C(c2ccccc2)CC1c1cn(C)c2ccccc12 (stereo unspecified)	18.1
C=C(C)CN1CCN(c2ccc(N3C(=O)CCCC3=O)cc2[N+](=O)[O-])CC1	21.5
CCOC(=O)c1cc2c(=O)n3cccc(C)c3nc2n(CCOC)c1=NC(C)=O	15.9
CCN(CC(=O)Nc1ccc(C(=O)Nc2ccc(OC)cc2)cc1)Cc1nc2ccccc2c(=O)[nH]1	16.7

More structures.
structure	Calb biofilm kill
c1ccc(COc2cccc(CNCc3ccccn3)c2)cc1	11.9
COc1ccc(-c2cnnc(N/N=C/c3ccc(O)cc3)n2)cc1	16.1
Cc1c(C(=O)N2CCCCC2)nn(-c2ccc(Cl)cc2)c(=O)c1C#N	-0.8
CC(C)Cn1nc(NC(=O)c2ccco2)c2cc3ccccc3nc21	12.5
CS(=O)(=O)NCC(c1cccnc1)N1CCN(c2ccccc2F)CC1 (stereo unspecified)	28.8
Cc1ccc(NC(=O)O/N=C/c2c(C)nn(C(C)(C)C)c2C)cc1Cl	-3.9
N#CC(C#N)=C(Nc1ccc(F)cc1)SCc1cccc(F)c1	16.7
